2A Renilla – Primary qHTS Assay for Foot and Mouth Disease Virus Antivirals against NCGC Sytravon and CBC Compound Libraries: Renilla Luciferase Signal; HEK cells with a luciferase reporter of 2A StopGo recoding; Potency, µM (titrated, usually from 57.5 µM), for the others: at the top dose signal change, negative = less light; 120,000 tested, 0.32% active; active means well fitted falling curve with a large enough effect; inconclusive means small, poorly fitted or top-dose-only effect; inactive means no such curve, though single readings can be large or run the other way; further: nearly all actives have a fitted effect of over 55% in size; overnight with compound
StopGo FLuc – Primary qHTS Assay for Foot and Mouth Disease Virus Antivirals against NCGC Sytravon and CBC Compound Libraries: Firefly Luciferase Signal; HEK cells with a luciferase reporter of 2A StopGo recoding; Potency, µM (series often up to 57.5 µM), for inactives: top-dose signal change, negative = less light; 120,000 tested, 0.23% active; active = well fitted falling curve with a large enough effect; inconclusive = small, poorly fitted or top-dose-only effect; inactive = no such curve, though single readings can be large or run the other way; further: nearly all actives have a fitted effect of over 60% in size; overnight with compound
Active calls of the source: *; & = joins results of further samples; [ ] = dose if it differs, or a comment. On the % scale 0 is the no-effect control and ±100 the full control effect; potency means the concentration at half of the fitted maximal effect. A portion of the library. The share of hits here may be higher or lower than overall.

Screening COc1ccc(CC/C(C)=N/O)cc1 returned 2A Renilla -19% and StopGo FLuc 51%[activator].
Cc1cccc2nc(Cn3c(=O)n(-c4ccccc4)c(=O)c4c5c(sc43)CCC5)cc(=O)n12 was read as 2A Renilla -12% and StopGo FLuc 4%.
Screening CC1=CC(C)C(/C=N/NC(N)=S)C(C)C1 (stereo unspecified) returned 2A Renilla 4% and StopGo FLuc 1%.
For CC1=C/C(=N/NC(=S)Nc2ccccc2C(F)(F)F)CC1 the results were 2A Renilla -13%[1.06 µM] and StopGo FLuc 79%[activator].
`CC(C)C(=O)NN=C(c1ccccc1)c1ccccc1` gave 2A Renilla 7% and StopGo FLuc 17%.
For O=C1CN(c2nc(-c3ccccc3)c3ccccc3n2)CCN1 the results were 2A Renilla -3% and StopGo FLuc 7%.
Cc1cc(C)n(-c2nc3ccccc3nc2N2CCN(c3cccc(C(F)(F)F)c3)CC2)n1 was read as 2A Renilla -10% and StopGo FLuc -2%.
For O=[N+]([O-])c1ccc(NCCNCCO)c2ncccc12 the results were 2A Renilla -1% and StopGo FLuc 22%.
Cn1cc(C(C(=O)O)N2CCN(CCc3ccncc3)CC2)c2cc(C(=O)O)ccc21 (stereo unspecified) was read as 2A Renilla -13% and StopGo FLuc -7%.
COC(=O)c1ccc([C@@H]2Nc3c(cccc3C(F)(F)F)[C@@H]3C=CC[C@@H]32)cc1 was read as 2A Renilla -9% and StopGo FLuc -9%.
For COc1ccc(-c2cn3c(n2)sc2cc(C(=O)NCCc4ccc(OC)cc4OC)ccc23)cc1 the results were 2A Renilla -7% and StopGo FLuc 33%[activator].
`CC1(c2nnnn2C2CCCCC2)CCCC(=O)N1CCc1ccc(O)cc1` (stereo unspecified) gave 2A Renilla -1% and StopGo FLuc -2%.
`Cc1ccc(-n2c(-c3ccco3)nc3c(cnn3-c3ccc(C)cc3)c2=O)cc1` gave 2A Renilla -6% and StopGo FLuc -1%.
Screening CCCCN1C(SCC(=O)N2CCCC2)=NS(=O)(=O)c2ccccc21 returned 2A Renilla -2% and StopGo FLuc -4%.
For CCc1sc(C(=O)OCC(=O)Nc2cc(C)on2)cc1C the results were 2A Renilla 2% and StopGo FLuc 18%.
`C=CCN(Cc1cccs1)C(=O)c1cccs1` gave 2A Renilla -2% and StopGo FLuc -6%.
`Cc1ccc(-c2nnc(Nc3cccc(Cl)c3)c3ccccc23)cc1S(=O)(=O)N1CCN(C)CC1` gave 2A Renilla 45%[activator] and StopGo FLuc -10%.
`CC(C)(C)NC(=O)CCn1nc(-c2ccc(Cl)cc2)c2ccccc2c1=O` gave 2A Renilla -3% and StopGo FLuc 3%.
CCc1ccc(NC(=O)Cn2c(=O)n(Cc3nc(-c4ccccc4)no3)c(=O)c3cc4c(cc32)OCO4)cc1 was read as 2A Renilla -6% and StopGo FLuc 25%.
`COc1ccccc1OCCNC(=O)c1ccc2[nH]c(C)c(C)c2c1` gave 2A Renilla 68%[activator] and StopGo FLuc 147%[activator].

The last five records of the section above come first, to join the parts:
`C=CCN(Cc1cccs1)C(=O)c1cccs1` gave 2A Renilla -2% and StopGo FLuc -6%.
`Cc1ccc(-c2nnc(Nc3cccc(Cl)c3)c3ccccc23)cc1S(=O)(=O)N1CCN(C)CC1` gave 2A Renilla 45%[activator] and StopGo FLuc -10%.
`CC(C)(C)NC(=O)CCn1nc(-c2ccc(Cl)cc2)c2ccccc2c1=O` gave 2A Renilla -3% and StopGo FLuc 3%.
CCc1ccc(NC(=O)Cn2c(=O)n(Cc3nc(-c4ccccc4)no3)c(=O)c3cc4c(cc32)OCO4)cc1 was read as 2A Renilla -6% and StopGo FLuc 25%.
`COc1ccccc1OCCNC(=O)c1ccc2[nH]c(C)c(C)c2c1` gave 2A Renilla 68%[activator] and StopGo FLuc 147%[activator].
Screening COc1ccc(/C=C/C(=O)OC(C)C(=O)c2ccc3c(c2)CCC3)cc1OC (stereo unspecified) returned 2A Renilla 13%[1.06 µM] and StopGo FLuc inconclusive.
For COC(=O)c1cc(-c2cccc(C)c2)nc2ccccc12 the results were 2A Renilla -5% and StopGo FLuc 18%.
Cc1cc(NC(=O)Nc2c(C3=CCCCC3)c(C)nn2C)ccc1Br was read as 2A Renilla -6% and StopGo FLuc -4%.
For CN(C)CCNc1oc(-c2ccccc2F)nc1S(=O)(=O)c1ccc2c(c1)OCCO2 the results were 2A Renilla 41%[activator] and StopGo FLuc 4%.
`O=C(Nc1sc2c(c1C(=O)NCC1CCCO1)CCC2)c1cc(=O)c2ccccc2o1` (stereo unspecified) gave 2A Renilla 1% and StopGo FLuc 14%.
Screening COc1ccc(/C=C(/C#N)c2nc3ccccc3[nH]2)cc1Cl returned 2A Renilla 203%[activator] and StopGo FLuc 169%[activator].
`Cc1cc(C(F)F)n2nc(C(=O)Nc3c(C)cccc3C)nc2n1` gave 2A Renilla -9% and StopGo FLuc -22%.
For CCOc1cc(/C=C2\NC(=O)NC2=O)cc(Cl)c1O the results were 2A Renilla 44%[activator] and StopGo FLuc 47%[activator].
For O=C(Cn1c(=O)n(Cc2ccco2)c(=O)c2sc3ccccc3c21)Nc1ccc(F)cc1F the results were 2A Renilla -7% and StopGo FLuc -13%.
`c1csc(CNC2CCCCCCC2)c1` gave 2A Renilla -2% and StopGo FLuc -7%.
For O=C(Cn1ccn(-c2ccc(F)c(F)c2)c(=O)c1=O)Nc1ccccc1F the results were 2A Renilla -16% and StopGo FLuc -12%.
NC(=O)c1cc(Sc2ccc3c(c2)OCCCO3)nc2ccccc12 was read as 2A Renilla inconclusive and StopGo FLuc inconclusive.
Screening CN(C)S(=O)(=O)c1ccc(=O)n(CCOc2ccc(C#N)cc2)c1 returned 2A Renilla -14% and StopGo FLuc -5%.
Screening COc1ccc(C2C(C(=O)Nc3cccnc3)=C(C)Nc3nc(-c4ccc(OC)c(OC)c4)nn32)cc1 (stereo unspecified) returned 2A Renilla 6% and StopGo FLuc 22%.
For C[C@H](NC(=O)OC(C)(C)C)c1nnc(SCc2c(F)cccc2Cl)o1 the results were 2A Renilla 15% and StopGo FLuc 19%.
Screening O=C(O)CCN1CCOCC1 returned 2A Renilla 2% and StopGo FLuc 9%.
For Cc1ccc(NC(=O)C(c2ccc(Cl)cc2)C(C)C)cc1F (stereo unspecified) the results were 2A Renilla inconclusive and StopGo FLuc inconclusive.
For COc1cc(CNc2ccc3[nH]c(=O)[nH]c3c2)ccc1OCc1ccc(F)cc1Cl the results were 2A Renilla -5% and StopGo FLuc 57%[activator].
Screening COc1ccc(N2CCN(C3=NS(=O)(=O)C(c4cccc(Br)c4)=C3C)CC2)cc1 returned 2A Renilla 20% and StopGo FLuc -11%.
`CCN(CC)S(=O)(=O)c1nnc(NC(=O)COc2ccccc2F)s1` gave 2A Renilla 0% and StopGo FLuc 19%.
N#CC(C(=O)NCc1ccccc1)c1nc2ccccc2nc1N1CCN(c2ccc(F)cc2)CC1 (stereo unspecified) was read as 2A Renilla 1% and StopGo FLuc 8%.
Screening COc1ccc(NC(=O)N2CCN(S(=O)(=O)c3cc4c(cc3Cl)NC(=O)C(C)O4)CC2)cc1 (stereo unspecified) returned 2A Renilla 3% and StopGo FLuc 24%.
Screening Cn1cc(-c2cc3n(n2)CCC(=O)N3CCCC(=O)NCc2ccccc2)c2ccccc21 returned 2A Renilla -3% and StopGo FLuc -2%.
COC(=O)c1cc(S(=O)(=O)NCC2CCN(Cc3ccc(C)cc3)CC2)c[nH]1 was read as 2A Renilla -13%&190% and StopGo FLuc -6%&0%.
`COc1cc(-c2nc(Cc3ccccc3Cl)no2)cc(OC)c1OC` gave 2A Renilla 167%[activator] and StopGo FLuc 17%.
Cc1ccc(-c2onc(C)c2C)cc1S(=O)(=O)N1CCC(C)CC1 was read as 2A Renilla inconclusive and StopGo FLuc inconclusive.
`CC1CCCCC1NC(=O)CSc1ccc2c(c1)OCCCO2` (stereo unspecified) gave 2A Renilla -11%[1.06 µM] and StopGo FLuc 23%.
`CC(C)c1ccc(-c2noc(CSc3nnc4ccccn34)n2)cc1` gave 2A Renilla inconclusive and StopGo FLuc 96%[activator].
Screening Cc1c(OCC(F)(F)F)ccnc1CS(=O)c1nc2ccccc2[nH]1 (stereo unspecified) returned 2A Renilla -7% and StopGo FLuc 69%[activator][11.5 µM].
For Cc1ccc(Nc2ccc(N3CCN(S(=O)(=O)c4ccc(Br)cc4)CC3)nn2)cc1 the results were 2A Renilla 1% and StopGo FLuc -1%.
Screening Cc1ccc(NC(=O)CCc2c(C)nc3c(-c4ccccc4)c(C)nn3c2C)c(C)c1 returned 2A Renilla 1% and StopGo FLuc 6%.
CCOC(=O)C(NC(=O)c1ccccc1)(Nc1ccccc1OC)C(F)(F)F (stereo unspecified) was read as 2A Renilla 50%[activator] and StopGo FLuc 66%[activator].
`CC(C)CCN(CC(=O)Nc1cccc2ncccc12)C1CC1` gave 2A Renilla -2% and StopGo FLuc -10%.
Screening CCOC(=O)CSCC(=O)NCc1cccs1 returned 2A Renilla 9% and StopGo FLuc 7%.
For CC(NC(=O)CSc1nc2cc([N+](=O)[O-])ccc2o1)c1ccc(F)cc1F (stereo unspecified) the results were 2A Renilla 2% and StopGo FLuc 11%.
Screening CCCSc1nc(SC)c2c3c(sc2n1)COC(C)(C)C3 returned 2A Renilla 3% and StopGo FLuc 29%.
For CC(C(=O)Nc1ccc(C#N)cc1)n1nnc(-c2ccc(F)cc2)n1 (stereo unspecified) the results were 2A Renilla 25% and StopGo FLuc -6%.
CCOc1ccc(C(=O)NCc2sccc2C)cc1 was read as 2A Renilla 62%[activator] and StopGo FLuc 0%.
For CCOc1ccc(C(=O)N(Cc2ccc(F)cc2Cl)c2ccccn2)cc1 the results were 2A Renilla -18% and StopGo FLuc inconclusive.
For COc1cccc(CNC(=O)[C@H](Cc2ccccc2)NC(=O)N2CCn3c2nc2ccccc23)c1 the results were 2A Renilla -2% and StopGo FLuc -26%.

Five structures out of the list, sorted by molar mass, low to high.
Screening CCOC(=O)CSCC(=O)NCc1cccs1 returned 2A Renilla 9% and StopGo FLuc 7%.
CCOc1ccc(C(=O)NCc2sccc2C)cc1 was read as 2A Renilla 62%[activator] and StopGo FLuc 0%.
`CC(C)c1ccc(-c2noc(CSc3nnc4ccccn34)n2)cc1` gave 2A Renilla inconclusive and StopGo FLuc 96%[activator].
Screening Cn1cc(-c2cc3n(n2)CCC(=O)N3CCCC(=O)NCc2ccccc2)c2ccccc21 returned 2A Renilla -3% and StopGo FLuc -2%.
For COc1cccc(CNC(=O)[C@H](Cc2ccccc2)NC(=O)N2CCn3c2nc2ccccc23)c1 the results were 2A Renilla -2% and StopGo FLuc -26%.

Additional entries
`CC(C)(C)c1ccc(C(=O)NC(Cc2c[nH]c3ccccc23)C(=O)OCC(=O)c2ccccc2)cc1` (stereo unspecified) gave 2A Renilla -5% and StopGo FLuc 28%.
Screening Cc1oc(-c2ccccc2F)nc1CS(=O)(=O)CC(=O)NC(C)CCc1ccccc1 (stereo unspecified) returned 2A Renilla 20% and StopGo FLuc -7%.
CCOc1ccc(Nc2c(S(=O)(=O)c3ccc(C)cc3)cnc3ccc(OC)cc23)cc1 was read as 2A Renilla 22% and StopGo FLuc -10%.
`COc1ccc(OC)c2sc(N3CCN(C(=O)CCS(=O)(=O)c4ccc(F)cc4)CC3)nc12` gave 2A Renilla -11% and StopGo FLuc -11%.
`COc1ccc(NS(=O)(=O)c2ccc3[nH]c4c(c3c2)CCCCCC4)cc1` gave 2A Renilla 2% and StopGo FLuc -32%.
For COc1ccc(S(=O)(=O)Nc2nc3ccccc3nc2Nc2ccc(C)cc2)cc1 the results were 2A Renilla 104%[activator] and StopGo FLuc 9%.
Screening COc1ccc(Oc2c(C)oc3cc(OCc4ccccc4F)ccc3c2=O)cc1 returned 2A Renilla 6% and StopGo FLuc -1%.
Screening CCc1sc(Nc2ccc(C)cc2Br)nc1-c1cc2cccc(OC)c2oc1=O returned 2A Renilla -7% and StopGo FLuc -10%.
Screening CCC1CN(C(=O)N2CCC(C(=O)NCCN(C)C)CC2)c2ccccc2O1 (stereo unspecified) returned 2A Renilla -7% and StopGo FLuc -22%.
`CC(=O)c1sc(-c2cccc(Br)c2)nc1C` gave 2A Renilla 7% and StopGo FLuc 0%.
For Cc1cc2c(cc1C)-n1c(-c3ccccc3)c3c(=O)n(C)c(=O)n(C)c3c1C(c1ccco1)N2 (stereo unspecified) the results were 2A Renilla 15% and StopGo FLuc 54%[activator].
COc1ccccc1-c1cc(C(=O)Nc2ccccc2C(F)(F)F)no1 was read as 2A Renilla 4% and StopGo FLuc 5%.
`CCc1cccc(-n2nnc(-c3nsc(NC(=O)c4cccs4)n3)c2C)c1` gave 2A Renilla -10% and StopGo FLuc 95%[activator].
`COc1ccccc1CNC(=O)c1ccc(CS(=O)c2cccc(C)c2)o1` (stereo unspecified) gave 2A Renilla 10% and StopGo FLuc -1%.
Screening O=C(Nc1ccc(F)c(S(=O)(=O)N2CCOCC2)c1)C1CC(=O)N(CCc2ccccc2)C1 (stereo unspecified) returned 2A Renilla 7% and StopGo FLuc -2%.
For CCN(CC(=O)NCc1cccs1)C(=O)C1CC(=O)N(c2cc(C)ccc2OC)C1 (stereo unspecified) the results were 2A Renilla 3% and StopGo FLuc -8%.
`COC(=O)c1c(-c2ccc(F)cc2)csc1NC(=O)c1ccc(OC)cc1` gave 2A Renilla -3% and StopGo FLuc 6%.
`O=C(c1cc2ccccc2oc1=O)N1CCCc2ccccc21` gave 2A Renilla -1% and StopGo FLuc 28%.
`Cc1ccc(S(=O)(=O)NC(=O)NN2CC3CCCC3C2)cc1` (stereo unspecified) gave 2A Renilla -7% and StopGo FLuc -20%[11.5 µM].

Assay outcomes from PubChem BioAssay.
